Screening data deposited in PubChem by ICCB-Longwood Screening Facility, Harvard Medical School.
fixLJ activator: B. multivorans fixK reporter activation; z-score (test concentration not listed); actives 0.3% (n = 29,000); B. multivorans fixK-promoter GFP reporter, 18 h; stronger effect = higher value;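 active = replicate mean overnight rise in green fluorescent reporter signal, 3 or more SD over negative controls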;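 note: score is relative to vehicle wells of the plate; 300 nL library stock went into each well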
Active calls of the source: *; & = joins results of further samples. These rows are one share of the data; rates above refer to the full screens.

The opening two records, ahead of the listing:
SMILES	fixLJ activator
CCC(=O)N1CCc2cc(S(=O)(=O)NCCC(=O)NCc3ccc(C)cc3)ccc21	-1.5
CN(Cc1cc2cc(F)ccc2[nH]1)C(=O)C(Cc1ccccc1)n1cnnn1 (stereo not drawn)	-1.1

This part in full, previewed entries included:
SMILES	fixLJ activator
CCC(=O)N1CCc2cc(S(=O)(=O)NCCC(=O)NCc3ccc(C)cc3)ccc21	-1.5
CN(Cc1cc2cc(F)ccc2[nH]1)C(=O)C(Cc1ccccc1)n1cnnn1 (stereo not drawn)	-1.1
COc1ccc(C(=O)N2CC(c3cccc(O)c3)C3C2C2CCN3CC2)cc1 (stereo not drawn)	-0.36
CC(C)Sc1nnc(NC(=O)c2ccccc2-n2cnnc2)s1	-0.42
Cc1ccc(-c2cc(C(F)(F)F)c(C#N)c(SCC(=O)Nc3ccccc3)n2)cc1	-20
Cc1nc2ncccn2c1C(=O)NCc1cc(-c2ccco2)on1	1.7
O=C(CC1(O)C(=O)N(CCc2ccccc2)c2ccc(Br)cc21)c1ccccc1O (stereo not drawn)	1.2
CCc1ccccc1Nc1sc(C(=O)c2ccccc2)c(N)c1S(=O)(=O)c1ccccc1	0.16
CCOC(=O)c1c(NC(=O)c2cc(-c3ccc(Br)cc3)on2)sc(C)c1C	0.14
Cc1ccc(CN2CCC(c3nnc(Cn4ccnc4)n3C3CC3)CC2)cc1	-1.5
Cc1nc2c(-c3ccccc3)c(C)nn2c(C)c1CCC(=O)NC(C)c1ccccc1 (stereo not drawn)	-0.74
CCC(=O)N1c2ccc(S(=O)(=O)CCC(=O)N3CCN(c4ccc(F)cc4)CC3)cc2CC1C (stereo not drawn)	-0.96
COc1ccccc1C1C(C(N)=O)=C(C)Nc2nc(SCc3ccccc3F)nn21 (stereo not drawn)	-1.3
O=C(COC(=O)c1cc(-c2cccs2)nc2ccccc12)c1ccccc1	0.17
O=C(c1ccc2n[nH]nc2c1)N1CC2CCC1CN(CCCc1ccccc1)C2 (stereo not drawn)	0.67
Cc1ccc(S(=O)(=O)N(CC(=O)Nc2ccc3c(c2)OCO3)c2ccc(C)c(Cl)c2)cc1	0.34
O=C(NCc1cccs1)c1ccc(CSc2nc3ccncc3n2Cc2cccc(F)c2)cc1	-7.1
Cc1sc2ncn(CC(=O)N3CCN(c4ccccc4)CC3)c(=O)c2c1S(=O)(=O)N1CCN(c2ncccn2)CC1	-0.17
COC(=O)Cc1c(C)c2cc3c(c(C)c2oc1=O)OCN(CCc1ccccc1F)C3	-0.79
COc1ccccc1CNC(=O)c1c(O)nc2cc(C)ccn2c1=O	0.36
COc1cc2[nH]c(=O)n(CCCC(=O)N(C)Cc3ccccc3)c(=O)c2cc1OC	-0.02
O=C(c1ccccc1)c1cn(Cc2ccc(F)cc2)c2ccccc2c1=O	-0.88
Cn1nc(CNC(=O)C2CC3(CCNCC3)CN2)c2c(Cl)cccc21 (stereo not drawn)	-0.47
Cc1cc(C)cc(NC(=O)C2CCN(S(=O)(=O)c3ccc4c(c3)oc(=O)n4C)CC2)c1	-2.2
Cc1cc(CC2CN(Cc3cc(C(C)C)on3)CC2O)n[nH]1 (stereo not drawn)	-1.3
CN1C2CC(OC(=O)[C@H](CO)c3ccccc3)C[C@H]1[C@H]1OC21 (stereo partly drawn)	-0.91
CCS(=O)(=O)CCn1c([N+](=O)[O-])cnc1C	-1.8&-1.9
CCCCc1ncc(CN2CC3CCC(C2)N(Cc2c(C)noc2C)C3=O)[nH]1 (stereo not drawn)	-0.83
CCCOc1cccc(C(=O)N(Cc2sccc2C)C2CCS(=O)(=O)C2)c1 (stereo not drawn)	0.84
CN(C)c1cccc(C(=O)N2CCn3nc(CO)cc3C2)c1	-0.9
Cc1cccc(C)c1NC(=O)Cn1c(=O)n(CCC(=O)NCc2ccc3c(c2)OCO3)c(=O)c2sccc21	-1.5
CCOc1cccc(NC(=O)c2sc3nc(-c4ccc(F)cc4)ccc3c2N)c1	0.07
CCCCN(CC)CCCn1cnc2c([nH]c3ccc(Cl)cc32)c1=O	-2.1
Cc1ccc(-c2cc(-c3ccc4c(c3)NC(=O)CO4)nc3c2COc2ccccc2-3)cc1	0.19
COc1ccc(Cn2cc(-c3ccc(C(=O)N4CCOCC4)o3)cn2)cc1	-1.6
O=C(c1cccs1)c1cn(CCOc2ccc(Cl)cc2)c2ccccc12	1.9
CCOc1cc(C2c3c(oc4ccccc4c3=O)C(=O)N2Cc2ccccc2Cl)ccc1O (stereo not drawn)	-1.8
COCCOC(=O)C1=C(C)NC(=O)NC1c1cn(-c2ccccc2)nc1-c1ccccc1 (stereo not drawn)	-1.1
CC(=O)N1CCC(NC(=O)N(Cc2cccc(C)c2)CC2CCCO2)CC1 (stereo not drawn)	1.2
CCc1nnc(CNC(=O)c2cc(N3CCCCC3)ccc2Cl)s1	-1.6
Cc1ccc(CSc2ncc(Cl)c(C(=O)NCCc3ccc(S(N)(=O)=O)cc3)n2)cc1	-2.1
CN1CCC[C@]2(C(=O)O)CCN(c3cc(C(F)(F)F)ccn3)C[C@H]12	-0.54
COc1ccc2c(c1)-c1nc(NC(=O)c3ccccc3F)sc1CC2	2
Cc1ccc(S(=O)(=O)NCCSc2nnnn2-c2ccccc2)cc1	-1.1
O=C(CSc1nc(-c2ccccc2)c2ccccc2n1)Nc1ccc(F)cc1	-3.3
Cc1cc(NC(=O)c2cc(-c3ccc(Cl)cc3)on2)n(-c2ccccc2)n1	-0.66
Cc1ccccc1CCNCc1c(C(=O)O)c(C)n(Cc2c(F)cccc2Cl)c1C	-0.49
CC1(C(=O)N2CCC3(CC2)c2nc[nH]c2CCN3C(=O)C2CCC2)COC1	0.2
CCc1ccc(CNC(=O)c2nn(-c3ccc(C)c(C)c3)nc2CO)cc1	1.4
Cc1ccc(NC(=O)COc2ccc3oc4c(c3c2)CCCC4)c(C)c1	-0.03

The list continues.
SMILES	fixLJ activator
Cc1ccc(-c2nc3ccccc3o2)cc1NC(=O)c1cccc2c(Cl)cccc12	-2
Cc1ccc(CCNC(=O)CN(c2ccc(C)cc2)S(=O)(=O)c2c(C)noc2C)cc1	-1.2
Cc1ccc(-c2nc(-c3cc4cccc(OCc5cccc(C)c5)c4oc3=O)no2)cc1	-0.85
CN(C)CCCC(=O)NCc1cc2n(n1)CCCN(C1CCCCC1)C2	-0.14
CCOC(=O)CNS(=O)(=O)c1cc(-c2nnc(Nc3cccc(O)c3)c3ccccc23)ccc1C	-1.9
Cc1ccc(-c2cc3ncc(C(=O)c4cc([N+](=O)[O-])ccc4O)cn3n2)cc1	-1.5
CC1=C(C(=O)N2CCN(c3cccc(C(F)(F)F)c3)CC2)C2(CCCCC2)OC1=O	-1.7
O=C1CCC(N2C(=O)c3ccccc3C2=O)C(=O)N1 (stereo not drawn)	-1&-1.6
Cn1c2ccccc2c2cnn(CC(=O)N3CCN(c4cccc(C(F)(F)F)c4)CC3)c(=O)c21	0.03
CNC(C)C(O)c1ccccc1 (stereo not drawn)	-1
Cc1ccc(C)c(N2CCN(C(=O)C3CCN(C(=O)c4cc5sccc5n4C)CC3)CC2)c1	-1.8
Cc1cccc2cc(CN(C(=O)c3cccc(Cl)c3)c3ccccc3)c(=O)[nH]c12	0.22
COCCCNc1nc2c(c(=O)n(Cc3ccc(F)cc3)c(=O)n2C)n1C	0.11
CCN1C(=O)c2ccccc2S(=O)(=O)c2ccc(C(=O)NCc3ccccc3Cl)cc21	0.31
O=C(NCCCc1nc2ccccc2n1Cc1cccc(Cl)c1)C1CCCCC1	-2.4
O=C(O)CCn1cnc2onc(-c3cc(F)cc(F)c3)c2c1=O	-0.8
Cc1cc(C)c2c(CC(=O)Nc3c(C(=O)c4ccc(F)cc4)oc4ccccc34)coc2c1	0.04
Cn1nnnc1SCCNC(=O)N1CCCC(c2ncc[nH]2)C1 (stereo not drawn)	-1.8
COc1ccc(-c2c3c(nc4sc(C(=O)Nc5cccc(OC)c5)c(N)c24)CC(C)(C)CC3=O)cc1	-1.4
CC(=O)c1ccc(Nc2nc3c(S(=O)(=O)c4ccccc4)nnn3c3ccc(Cl)cc23)cc1	-0.31
Cc1cccnc1CN1CCN(C(=O)c2cc(C(C)C)nc(N)n2)CC1	-1.8
Cc1ccccc1NC(=O)c1c(NC(=O)c2ccccc2)sc2c1CCC2	0.1
Cc1nc(Cc2ccc(NC(=O)N(C)CCCC3CCCO3)cc2)n[nH]1 (stereo not drawn)	1.4
CCCNC(=O)CNc1cc(-c2ccccc2)nc2cc(C)nn12	-2.7
Cc1ccc(-n2nc(CO)c(C(=O)NCCC(C)C)n2)cc1C	0.38
Cc1c(NC(=O)Nc2ccc(C#N)cc2)c(=O)n(-c2ccccc2)n1C	0.09
COc1cc(NC(=O)CCn2c(=O)oc3ccccc32)cc(OC)c1OC	-0.01
NCc1ccc(C(=O)N2CCC(N3CCCC(C(=O)N4CCCC4)C3)CC2)cc1 (stereo not drawn)	0.43
CCCCN(CC)CCCNC(=O)c1cc2c(-c3ccc(OC)c(OC)c3)nn(C)c2s1	-1
Cc1ccc(Nc2c(-c3ccc(O)cc3)nc3cccc(C)n23)cc1	-0.2

4 entries from above, ordered by length of the SMILES, smallest number first.
SMILES	fixLJ activator
Cc1ccc(-n2nc(CO)c(C(=O)NCCC(C)C)n2)cc1C	0.38
COc1cc(NC(=O)CCn2c(=O)oc3ccccc32)cc(OC)c1OC	-0.01
Cc1nc(Cc2ccc(NC(=O)N(C)CCCC3CCCO3)cc2)n[nH]1 (stereo not drawn)	1.4
CCCCN(CC)CCCNC(=O)c1cc2c(-c3ccc(OC)c(OC)c3)nn(C)c2s1	-1

Remaining list, next part:
SMILES	fixLJ activator
O=C(c1ccc(F)cc1)N1CCC(c2nc(-c3ccc(S(=O)(=O)N4CCCC4)cc3)no2)CC1	-1.1
Cc1ccc(S(=O)(=O)c2nnn3c2nc(N2CCN(c4ccc(F)cc4)CC2)c2cc(Cl)ccc23)cc1C	1.1
O=C(Cn1ncc2c3ccccc3n(Cc3ccccc3)c2c1=O)N1CCCCCC1	-2.6
Cc1ccc2c(c1)NC(=O)C(CC(=O)Nc1ccccc1Cl)O2 (stereo not drawn)	-1.4
O=C(CCCCn1c(=O)c2ccccc2n(Cc2ccccc2F)c1=O)NCc1ccccc1Cl	-1.7
COc1ccc(OC)c(C(c2c(O)c3ccccc3oc2=O)c2c(C)n(C)n(-c3ccccc3)c2=O)c1 (stereo not drawn)	-1.6
CN(CCC(C)(C)O)C(=O)c1cc(CN2CCOCC2)on1	0.78
O=S(=O)(NC1COCC1Cc1ccncc1)c1ccc2c(c1)OCCCO2 (stereo not drawn)	-0.4
CCOc1ccc(C2C(C(N)=O)=C(C)Nc3nc(SCc4ccccc4)nn32)cc1 (stereo not drawn)	-2.1
CCN(CC)CCCNC(=O)CSc1c2c(nc3cc(Cl)ccc13)CCCC2	-2

Looked up above:
`CCN(CC)CCCNC(=O)CSc1c2c(nc3cc(Cl)ccc13)CCCC2` in fixLJ activator: -2
`Cc1ccc(S(=O)(=O)c2nnn3c2nc(N2CCN(c4ccc(F)cc4)CC2)c2cc(Cl)ccc23)cc1C` in fixLJ activator: 1.1
`O=C(Cn1ncc2c3ccccc3n(Cc3ccccc3)c2c1=O)N1CCCCCC1` in fixLJ activator: -2.6

(cont.)
SMILES	fixLJ activator
Cc1cc(C)cc(Oc2coc3cc(OCC(=O)NC4CCCCC4)ccc3c2=O)c1	1.1
O=C(CNS(=O)(=O)c1ccc(Br)s1)N1CCN(c2ccc(F)cc2)CC1	-0.61
COc1ccc(-c2cc(C(F)(F)F)nc(SCC(=O)NCc3ccc(Cl)cc3)n2)cc1	-1.1
O=C(NCc1cc(-c2ccccn2)no1)C1CNCC(C(=O)N2CCOCC2)C1 (stereo not drawn)	-1.4
CN(C(=O)c1ccc2c(c1)N(Cc1ccc(F)cc1)C(=O)c1ccccc1S2(=O)=O)C1CCCCC1	0.31
COc1ccccc1CNC(=O)C(CC(C)C)NS(=O)(=O)c1ccc2c(c1)oc(=O)n2C (stereo not drawn)	-0.46
Cc1ccc(-c2cc(C(=O)NCCCNS(=O)(=O)c3ccc(C)cc3)[nH]n2)cc1	-1.1
COc1cc(OC)cc(-c2cc3nc(C)c(CCC(=O)Nc4ccc(F)c(Cl)c4)c(C)n3n2)c1	-0.85
Cc1ccc(C)c(N2CCN(C(=O)Cn3ncc4ccsc4c3=O)CC2)c1	-1.1
CCOc1ccc(C(=O)c2cn(Cc3ccccc3OC)c3ccc(F)cc3c2=O)cc1	0.19
O=C(O)CCc1ccc(-c2ccc(Br)cc2)n1-c1ccccc1O	0.09
CCc1cccc2c(-c3ccccc3)nc(SCC(=O)Nc3ccccc3)nc12	-1.6
CCC(C(=O)NCCc1ccccc1)n1nc(C)n2c(cc3sccc32)c1=O (stereo not drawn)	-1.8
Cc1cc(C(=O)N2CCCC(c3[nH]ncc3-c3ccc(F)cc3)C2)c(=O)[nH]c1C (stereo not drawn)	-0.31
CCCCC(=O)Nc1cc(-c2nc3ccccc3o2)ccc1OC	-1.7
O=C(CNc1cccnc1)NCC1CC(=O)N(c2ccccc2)C1 (stereo not drawn)	2
Cc1ccc(NC(=O)Cn2cc(C(=O)C3CC3)c3ccccc32)cc1	1.7
O=C(NCc1ccc(F)cc1)c1ccc2nc(N3CCCCC3)sc2c1	-0.83
CCOC(=O)C1=C(CS(=O)(=O)c2c(C)cc(C)cc2C)NC(=O)NC1c1cccc(OC)c1 (stereo not drawn)	-1.4
Cc1cc(Cl)cc(Cl)c1CNC(=O)NC1CNCC1O (stereo not drawn)	0.22
Cc1ccc(C(=O)c2cn(Cc3ccccc3)c3c(F)cc(F)cc3c2=O)cc1	1.5
CCn1cc(C(=O)Nc2ccc(C(C)C)cc2)c2cc(OC)c(OC)cc2c1=O	-0.24
COc1cc2c(cc1OC)C(COc1ccc3c(C)cc(=O)oc3c1)N(C(=O)c1ccc(Cl)cc1)CC2 (stereo not drawn)	0.54
